Screens: PubChem, National Center for Advancing Translational Sciences (NCATS)
TRPML1 inh = human mucolipin-1 channel inhibition | Q9GZU1 | TRPML1-inducible cells, Ca2+ dye fluorescence, FDSS; hits give low values; inhibition of EC80 agonist-evoked calcium signal | activity change, negative = inhibition, % (concentration not given with the values) | hit rate 0.02% among 390,000; in the data active means activity change below about -50%; inconclusive means about -30% to -50%; inactive means above about -30%;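 also: stimulus is agonist 54-4 at its EC80 concentration; % is scaled to controls: 0 for no effect and ±100 for the full control effect; compound concentration not given in the record; the text of the record puts the active cut at -80%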
Target sequence (Q9GZU1 whole entry, looked up): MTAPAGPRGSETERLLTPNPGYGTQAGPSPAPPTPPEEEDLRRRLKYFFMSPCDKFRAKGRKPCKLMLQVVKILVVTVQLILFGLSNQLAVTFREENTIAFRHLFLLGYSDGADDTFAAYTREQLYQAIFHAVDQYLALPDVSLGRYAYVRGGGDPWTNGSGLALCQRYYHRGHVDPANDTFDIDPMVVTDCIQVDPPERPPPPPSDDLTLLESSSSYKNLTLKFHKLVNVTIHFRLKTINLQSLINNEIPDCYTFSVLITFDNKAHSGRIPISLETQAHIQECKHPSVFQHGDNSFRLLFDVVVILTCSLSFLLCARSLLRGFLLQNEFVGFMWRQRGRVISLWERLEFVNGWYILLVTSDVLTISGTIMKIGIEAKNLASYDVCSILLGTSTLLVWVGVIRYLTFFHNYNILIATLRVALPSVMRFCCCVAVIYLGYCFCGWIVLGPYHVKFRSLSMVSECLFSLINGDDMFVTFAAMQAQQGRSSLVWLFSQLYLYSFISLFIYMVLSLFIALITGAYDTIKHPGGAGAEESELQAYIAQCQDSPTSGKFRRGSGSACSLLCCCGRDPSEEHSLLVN
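TRPML1-DL cells, Tet-induced overnight (~16 h, 37 °C) at 1,500 cells/well, were loaded with Ca8 no-wash dye plus quencher for 45-90 min at room temperature. Compounds were pinned during FDSS kinetic reading; agonist 54-4 at EC80 (4 uM final) then added.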
Sfp PPTase inh = blocks B. subtilis Sfp PPTase activity; Potency, µM, inactives show max response, negative = inhibition, actives largely listed as inhibitors; Q9F4F7; hit rate 3.5% among 310,000; Biochemical Sfp PPTase activity, qHTS; active = well fitted inhibition curve with a large enough effect; inconclusive = small, poorly fitted or top-dose-only effect, or another doubt; inactive = no such curve, though single readings can be large or run the other way;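 also: the enzyme is Sfp with the accession as filed and its product quenches rhodamine fluorescence; potency is read from the fitted curve at half-maximal effect; 0% = enzyme reaction without inhibitor and -100% = no enzyme wells; top concentration of the series not given in the record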
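Compounds were incubated with enzyme (final 15 nM) for 15 min at room temperature before substrate addition started the reaction. Fluorescence at 525 nm excitation, 598 nm emission was recorded immediately and after 30 minutes.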
TRPV1 potentiator = potentiators of human vanilloid receptor 1 (TRPV1). TRPV1-expressing cells, Fluo-8 calcium influx, capsaicin EC20 potentiation; host cell line not named in the record; control for the full effect not named in the record. AID 540277. potentiation, % at 8.33 µM. hit rate 0.02% among 320,000; active means potentiation above 80%; inconclusive means 30% to 80%; inactive means below 30%; also: 0% is about no effect
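Fluo-8 calcium influx in TRPV1-expressing cells, kinetic read (ex 480/em 520 nm). Compound added and read 3 min for agonist activity, followed by capsaicin at EC20 final and 2 min further read for enhancement.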
Menin MLL FP FL = inhibitors of human menin-MLL interaction, wild-type MLL peptide | FP activity change, % at 61.4 µM | 290,000 tested, under 10 active | Fluorescence polarization, fluorescein-MLL peptide displacement from menin; inconclusive = falling polarisation curve, or a change in total fluorescence; inactive = total fluorescence flat and polarisation flat or rising; no compound was filed as active; the % refers to the polarisation; negative = inhibition;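 also: % of control where 0% means no effect; inhibitors lower the polarisation; unlabelled MLL peptide was the positive control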
PINK1 modulator = modulators of PINK1 expression; PINK1 immunofluorescence, high-content cytometry, 24 h; hit rate 0.2% among 410,000; Potency, µM (titrated, usually from 76.6 µM), inactives show at the top dose activation (PINK1 increase), usual class: activators; AID 624263; active = well fitted activation curve with a large enough effect; inconclusive = small, poorly fitted or top-dose-only effect; inactive = flat fitted curve, though single readings scatter; cell line not stated here;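 also: potency is read from the fitted curve at half-maximal effect; % of control where 0% means no effect; nearly all actives have a fitted effect of over 65% in size; a mitochondrial uncoupler was the plate control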
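Readout is PINK1 immunofluorescence, quantified alongside mitochondrial, cell and nuclear markers by laser-scanning microplate cytometry. Cells from a stable line were exposed to compound titrations (5 concentrations) for 24 hours, with CCCP controls.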
TRPML1 ag = human mucolipin-1 channel agonism; Q9GZU1; TRPML1-expressing cells, Ca2+ dye fluorescence, FDSS; host cell line not named in the record; reference of the full effect not given here; activation, % (no concentration beside the values); hit rate 0.12% among 410,000; in the data active = activation above about 50%; inconclusive = about 30% to 50%; inactive = below about 30%; also: 0% is about no effect; the text of the record puts the active cut at 80%
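Tet-induced TRPML1-DL cells, 1,500 per well, cultured overnight, were loaded with a no-wash Ca2+ dye for 45–90 min. Calcium fluorescence was recorded on the FDSS for 110 s after compound addition, before the EC80 agonist (4 uM 54-4) was added.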
ClpP mod = qHTS Assay for Activators of ClpP | ATP-dependent Clp protease proteolytic subunit (Bacillus subtilis (strain 168)), P80244 | purified B. subtilis ClpP, FRET peptide cleavage, 20 min | Potency, µM (doses to about 57.5 µM), without a hit: top-dose activity change, negative = active | hit rate 1.9% among 340,000; active = well fitted falling curve with a large enough effect; inconclusive = small, poorly fitted or top-dose-only effect; inactive = no such curve, though single readings can be large or run the other way; also: potency is read from the fitted curve at half-maximal effect; the source files actives as falling curves though it sought activators and does not explain the sign; nearly all actives have a fitted effect of over 65% in size; many hits overshoot -100%
Target sequence (P80244 whole entry, looked up): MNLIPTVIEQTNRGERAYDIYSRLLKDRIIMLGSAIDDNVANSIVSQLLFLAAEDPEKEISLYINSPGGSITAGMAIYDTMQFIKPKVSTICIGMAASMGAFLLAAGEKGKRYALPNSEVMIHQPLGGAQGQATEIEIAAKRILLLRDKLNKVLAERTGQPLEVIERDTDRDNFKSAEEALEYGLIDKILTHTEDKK
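FRET quenching reversal measured ClpP activation: 10 microg/mL B. subtilis ClpP at pH 8 with the FRET-FV decapeptide, read at 430 nm after 320 nm excitation. The 20-min minus 0-min signal was scaled between DMSO/no-enzyme wells and ADEP (5.8 microM final).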
The depositor's hits bear a star; ? = inconclusive; · = not tested or not shown; & = joins results of further samples; [ ] = remark or other dose. Outcome played no part in choosing rows (roughly 4.4% active in at least one column).

SMILES	TRPML1 inh	Sfp PPTase inh	TRPV1 potentiator	Menin MLL FP FL	PINK1 modulator	TRPML1 ag	ClpP mod
COc1ccc(C(C(O)C(=O)c2c[nH]c3ccccc23)N2CCN(c3ccc(OC)cc3)CC2)cc1 (configuration not stated)	12	-11%	18	2.8	-3.0%	0.7	3.1%
COc1cc(C(=O)NCCC(=O)NCCN2CCCCCC2)cc(OC)c1OC	3	22%	7	2.1	4.7%[38.3 µM]	-0.2	-2.4%
COc1ccccc1OCCCCOc1ccccc1C(C)=O	-25	-3%	1	8.5	3.3%	2.5	-4.3%
O=C(COc1ccccc1Cc1ccccc1)NCCCN1CCOCC1	-5	18%	-1	-2.5	2.1%	1.1	·
Cc1ccc(CSc2ncc(Cl)c(C(=O)NCc3ccccc3)n2)cc1	41	·	·	·	0.8%	1.9	-10%
CN1CCN(Cc2c(O)ccc3cc(-c4ccccn4)c(=O)oc23)CC1	-21	1%	-9	?	0.3%	6.6	·
c1ccc2c(c1)nnn2-c1ccncc1	13	·	·	·	-1.8%	-0.1	-1.6%
Cc1nn2c(-c3ccco3)ccnc2c1-c1ccc(Br)cc1	6	·	·	·	0.1%	-0.5	0.6%
CC(=O)N1c2ccccc2C(=O)C1N(C)c1ccc(C)cc1 (configuration not stated)	-11	-18%	-8	10	4.3%	0.0	·
CCN1C(=O)c2ccccc2S(=O)c2ccc(C(=O)NCCN(CC(C)C)CC(C)C)cc21 (configuration not stated)	-2	12%	0	-2.8	4.1%	-0.5	1.7%
Cc1ccc(N(CC#N)C(=O)CS(=O)(=O)c2cccc([N+](=O)[O-])c2)cc1	26	3%	2	-2.9	-2.4%	0.6	·
O=C(CSc1ncc2c(n1)-c1cc(Cl)ccc1N(Cc1ccccc1F)S2(=O)=O)Nc1cccc(C(F)(F)F)c1	-7	·	·	·	5.7%	-0.1	4.3%
CC(=O)N1c2ccccc2C(=O)C1N1CCN(c2ccccc2)CC1 (configuration not stated)	-14	·	·	·	-1.2%	1.9	-2.1%
Cc1cc(C)n(C(=O)Cc2cn3ccsc3n2)n1	-16	89µM*	-18	2.3	-0.7%	-1.1	-0.9%
CC1CC(=O)C2=C(C1)Nc1nc3ccccc3n1C2c1cccnc1 (configuration not stated)	17	-9%	4	4.2	-0.3%	1.1	-8.9%
CCCC(=O)Nc1nc2ccc(NC(=O)c3ccccc3F)cc2s1	0	6%	20	0.0	9.2%	-1.1	-1.9%
C=CCSC1=N/C(=C\c2ccsc2)C(=O)S1	-1	-19%	-3	4.5	-1.9%	-1.3	-3.2%
Cc1cc(C)cc(NC(=O)CN(c2cccc(C)c2C)S(=O)(=O)c2ccccc2)c1	39	·	·	·	-1.2%	0.3	2.3%
Fc1cccc(NC(=S)Nc2cccnc2)c1	-6	35µM*	9	-0.4	0.6%	0.2	·
Cc1[nH]c2ccccc2c1C(=O)C(=O)N1CCN(C(=O)c2ccco2)CC1	-12	17%	25	-1.5	0.4%	0.1	116%
O=C(CSc1nnc(COc2ccc(Cl)cc2)o1)N1c2ccccc2CCc2ccccc21	-14	17%	21	4.3	0.8%	1.4	-1.6%
O=C1c2cccc3cccc(c23)C(=O)N1OS(=O)(=O)c1ccc(Br)cc1	9	1%	19	7.1	1.2%	2.7	·
COc1ccccc1C/C(N)=N/O	-1	-25%	7	3.8	1.2%	-0.3	-1.3%
O=C(Cc1ccc(O)cc1)NCCNC(=S)NCc1ccccc1	8	1%	-7	-1.4	-1.7%	0.3	·
Cc1cc(CNC(=O)COc2ccccc2F)c2ccccc2n1	0	1%	15	0.3	-0.4%	3.7	-0.4%
Cc1ccc(C(=O)NCC(=O)OCC(=O)N(CC(C)C)c2c(N)n(Cc3ccccc3)c(=O)[nH]c2=O)cc1C	34	·	6	·	-0.1%	0.5	-2.1%
CC(C)C[C@H]1CNC(=O)C(=O)N1C[C@@H]1CCCN1C[C@H](Cc1ccccc1)N1C[C@H](CC(C)C)N(CCc2ccccc2)C(=O)C1=O	·	·	·	·	-0.1%	-0.9	-1.5%
C=C(C)C(=O)Nc1cccc(C2=NOC3(C2)C[C@@H](C(N)=O)N(C(=O)c2ccc(Cl)cc2)C3)c1 (some centres not stated)	7	5%	1	6.7	0.0%	-0.6	-0.6%
COc1ccc2c(c1)c(=O)oc1cc(O)ccc12	3	0%	?	-2.6	-1.1%	0.6	-30%
CCN1CCN(c2cc3c(cc2F)c(=O)c(S(=O)(=O)c2ccccc2)cn3C)CC1	-1&-5	7%	-4	2.4	1.6%&1.6%	-0.5&-0.4	3.7%&4.6%
Cc1cc(C(=O)N/N=C2\CCCC(=O)C2)c(C)o1	15	·	-2	·	3.4%	-0.3	·
CC(C)C(=O)Nc1ccccc1OCc1cc(=O)n2ccccc2n1	29	·	·	·	-9.1%	2.3	-21%
COCCn1c(=O)[nH]c2cc(C(=O)NC3CCCCCC3)ccc2c1=O	13	12%	6	-0.2	0.9%	-0.5	5.0%
O=C(/C=C/c1ccc(Cl)c([N+](=O)[O-])c1)c1cccnc1	·	?	16	2.1	3.7%	·	-1.0%
O=C(CN1C(=O)NC2(CCCC2)C1=O)N1CCN(S(=O)(=O)c2ccccc2[N+](=O)[O-])CC1	-16	·	-5	·	-3.0%	0.1	-2.3%
CN1CCN(NC(=O)c2ccc(S(=O)(=O)N3CC4(C)CC3CC(C)(C)C4)cc2)CC1 (configuration not stated)	-12	-7%	18	-1.0	0.0%	0.6	-1.3%
O=C(CN1CCN(C(=O)C2CCCO2)CC1)Nc1ccc(Cl)cc1 (configuration not stated)	26	-6%	-4	1.4	0.2%	-0.2	0.1%
COc1cccc(C2C3=C(N=c4s/c(=C\c5ccc(O)cc5)c(=O)n42)c2ccccc2CC3)c1OC (configuration not stated)	8	5%	-3	0.5	3.2%	1.3	-1.2%
COc1ccccc1C(=O)Nc1nnc(S(=O)(=O)N2CCOCC2)s1	-2	15%	-6	·	1.6%	-0.4	-4.3%
NC1=NC2(CCCCC2)n2c(nc3ccccc32)N1	10	-8%	0	2.0	-2.4%	-0.9	-26%

Filtered by structure, those above containing a furan ring, fused or not
SMILES	TRPML1 inh	Sfp PPTase inh	TRPV1 potentiator	Menin MLL FP FL	PINK1 modulator	TRPML1 ag	ClpP mod
Cc1nn2c(-c3ccco3)ccnc2c1-c1ccc(Br)cc1	6	·	·	·	0.1%	-0.5	0.6%
Cc1[nH]c2ccccc2c1C(=O)C(=O)N1CCN(C(=O)c2ccco2)CC1	-12	17%	25	-1.5	0.4%	0.1	116%
Cc1cc(C(=O)N/N=C2\CCCC(=O)C2)c(C)o1	15	·	-2	·	3.4%	-0.3	·

Remaining list, next part:
SMILES	TRPML1 inh	Sfp PPTase inh	TRPV1 potentiator	Menin MLL FP FL	PINK1 modulator	TRPML1 ag	ClpP mod
COc1ccccc1NC(=O)c1oc2ccccc2c1NC(=O)c1ccco1	1	-11%	-2	0.8	16%[38.3 µM]	2.5	148%
O=C(CNC(=O)c1ccccc1)OC(C(=O)O)c1ccc(F)cc1 (configuration not stated)	-12	·	·	·	-1.0%	0.0	-3.3%
O=C(CSc1nc2ccc([N+](=O)[O-])cc2[nH]1)NC1CCCCC1	-4	17%	3	24	?	0.6	-0.5%
CN1CCN(C(c2ccc(C(F)(F)F)cc2)c2cc(Cl)c3cccnc3c2O)CC1 (configuration not stated)	·	45µM*	3	0.5	·	·	·
O=C(Cc1ccc(Cl)cc1)Nc1ccc(N2CCCC2)cc1	4	19%	1	6.1	1.4%	-0.7	-0.3%
CCN1C(=O)c2cccc3c(S(=O)(=O)Nc4ccncc4)ccc1c23	-3	7%	5	-1.6	6.7%	0.0	-29%
N#C/C(=N\Nc1ccccc1)C(=N)N1CCOCC1	13	13%	25	1.2	-2.4%	0.5	-1.5%
Cc1ccc(-c2nc(=S)c3c(n2Cc2ccco2)CCCC3)cc1	9	-49%	0	4.4	-0.5%	-0.7	-2.2%
CCc1ccc(N(C(=O)c2csnn2)C(C(=O)NC(C)(C)C)c2cccnc2)cc1 (configuration not stated)	31	22%	-10	-5.7	1.8%	0.4	·
CN(C)S(=O)(=O)N1CCC(C(=O)O)(c2ccccc2)CC1	9	5%	-35	0.4	-3.3%[38.3 µM]	1.2	-0.2%
CCOc1ccc(C(=O)C(C)OC(=O)CN2C(=O)NC(C)(C)C2=O)cc1 (configuration not stated)	-17	·	2	·	-1.1%	0.0	-0.2%
CCCCC1CCC(c2nc(-c3ccccn3)no2)CC1 (configuration not stated)	-9	-13%	-3	-1.3	11%	2.0	1.7%
O=C(NNC(=O)c1ccccc1C(F)(F)F)c1csc(N2CCOCC2)n1	-5	6%	-12	·	-3.3%	1.1	-3.9%
COC(=O)C1=C(C)N(CCc2ccccc2)C(=O)/C1=C\c1ccco1	-5	50µM*	-5	20	3.5%	2.6	0.1%
CC1(C)CC(=O)CC2(C1)NCC(c1ccccc1Cl)c1c2[nH]c2ccccc12 (configuration not stated)	9	7%	-4	2.5	9.2%	-0.1	·
COc1ccc(CNC(=O)CSc2nc3ccccc3nc2Cc2ccccc2)cc1	-7	·	·	·	-4.4%	6.0	-27%
O=S1(=O)N[C@H](Cc2ccccc2)COc2cc(N3CCN(Cc4ccccc4F)CC3)ccc21	·	·	·	·	9.2%	-0.4	-10%
O=C(NCCCN1CCN(C2CCCCC2)CC1)Nc1ccccc1C(F)(F)F	-16	0%	-2	6.7	-1.0%	1.1	-2.9%
O=C(CCc1ccccc1)N1CCN(S(=O)(=O)c2cccs2)CC1	-2	19%	-11	·	4.1%	-0.1	-0.4%
COc1ccccc1CNC(=O)c1cc(-c2ccccc2)nn1Cc1cc(C)no1	44	·	6	·	-0.5%	-0.3	2.4%
CC(C)N(C(=O)[C@H]1C[C@H](CC(=O)NC(C)(C)C)C(=O)N2CCc3c([nH]c4ccc(Cl)cc34)[C@]12C)C(C)C	0	·	·	·	?	-0.8	0.8%
Cc1ccc(OCC(=O)NCCc2nc3ccccc3[nH]2)c(C)c1	-22	18%	-12	-0.1	-3.5%	1.1	·
N#CC1=C(N)Oc2n[nH]c(-c3ccc(F)cc3)c2C1c1cccnc1 (configuration not stated)	32	1%	-4	-1.1	-0.6%	1.5	8.4%
COc1cccc(NC(=O)c2ccc3c(SCC(=O)O)c4c(nc3c2)CCCC4)c1	-2	14%	-3	-1.1	0.8%	-0.5	1.6%
